PV pol inh = inhibitors of poliovirus RNA polymerase binding and polymerization; P03300; % elongation, % (compound at 16.7 µg/mL); poliovirus polymerase elongation, fluorescence polarization; hits give low values; AID 588519; 0.66% of 150,000 active; in the data active means % elongation below about 90%; further: some results filed as inactive read as strong as hits
Target sequence (P03300 1749-2209 limits assumed): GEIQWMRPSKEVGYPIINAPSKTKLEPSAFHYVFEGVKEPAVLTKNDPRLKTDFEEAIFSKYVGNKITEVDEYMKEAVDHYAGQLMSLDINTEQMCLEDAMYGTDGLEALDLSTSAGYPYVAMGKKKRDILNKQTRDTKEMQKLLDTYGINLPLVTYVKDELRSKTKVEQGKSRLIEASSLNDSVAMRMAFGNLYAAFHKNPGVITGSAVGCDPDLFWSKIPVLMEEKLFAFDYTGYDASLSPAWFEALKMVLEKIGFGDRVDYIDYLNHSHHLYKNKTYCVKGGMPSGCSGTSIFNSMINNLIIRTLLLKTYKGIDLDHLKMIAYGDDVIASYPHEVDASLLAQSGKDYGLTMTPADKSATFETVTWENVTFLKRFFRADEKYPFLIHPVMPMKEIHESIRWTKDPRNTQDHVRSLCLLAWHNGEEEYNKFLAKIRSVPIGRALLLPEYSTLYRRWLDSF
PV pol inh intensity = also measured in PV pol inh; calls as there; % elongation; measured here: total intensity read-out; formula for this scale not given here;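 total fluorescence in place of polarization; lower means less elongation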
Active calls of the source: *. The list is partial; count on the stated rates, not on these rows.

SMILES	PV pol inh	PV pol inh intensity
CCc1ccc(S(=O)(=O)c2nnn3c2nc(Nc2ccc(NC(C)=O)cc2)c2sccc23)cc1	108	104
CCc1ccc(-n2nc(C)c3c(C(=O)NCCc4ccc(OC)c(OC)c4)cc(C)nc32)cc1	112	115
COc1ccc(NS(=O)(=O)c2ccc3nc(-c4ccccc4)[nH]c3c2)cc1	112	110
Cc1nc(N2CCCC2)ncc1C(=O)N1CCN(c2ccc(Cl)cc2)CC1	115	110
CCn1c(Oc2ccc(F)cc2F)nc2c1c(=O)n(C)c(=O)n2C	107	110
COc1ccc(Cl)cc1NC(=O)c1c(NCc2sccc2C)sc2c1CCCC2	70*	80*
CCC1CN(C(=O)NCc2ccccc2)c2cc(Cl)ccc2O1 (stereo not given)	113	111
CCOc1ccc(NC(=O)C(=O)c2cc(C)n(-c3cc(C)cc(C)c3)c2C)cc1	109	90
O=C(Cc1ccc(NC(=O)N2CCSc3ncccc32)cc1)NCCc1ccccc1	99	95
CCOC(=O)C1CCN(C(=O)Cn2ncc3c([nH]c4ccc(C)cc43)c2=O)CC1	108	107
Cc1ccc2c(CC(=O)Nc3c(C(=O)Nc4cccc(Cl)c4)oc4ccccc34)coc2c1C	119	117
O=C(COc1ccc(Cl)cc1)Nc1cc(-c2ccccc2)no1	106	114
CC1CCN(S(=O)(=O)c2ccc(N3CCCCS3(=O)=O)cc2)CC1	96	100
CC1=C(c2ccc(C)c(C)c2)S(=O)(=O)N=C1N1CCC(C(=O)Nc2cccc(F)c2)CC1	110	115
COc1ccc2cc3cc(C(=O)NCc4ccc(C)cc4)oc3nc2c1	110	109
CC(=O)c1ccc(NC(=O)C2CCN(S(=O)(=O)c3c(C)noc3/C=C/c3ccc(C)cc3)CC2)cc1	103	110
CCOC(=O)C(Cc1ccccc1)NC(=O)CCc1c(C)nc2c(c(C)nn2-c2ccc(C)c(C)c2)c1C (stereo not given)	109	108
CC(CC(=O)Nc1ccc(Br)cc1F)S(=O)(=O)c1ccc2c(c1)NC(=O)CO2 (stereo not given)	104	104
CCc1ccc(OCC(=O)N(Cc2ccc(Cl)cc2)C2CCS(=O)(=O)C2)cc1 (stereo not given)	103	100
Cc1ccc(N2CCN(S(=O)(=O)c3ccc4oc(=O)c5ncn(C)c5c4c3)CC2)c(C)c1	103	98
COc1ccc(CCNC(=O)CCCCn2c(=O)c3ccccc3n(Cc3ccc(F)cc3Cl)c2=O)cc1OC	107	108
CCOC(=O)c1ccc(NC(=O)c2cc3c(n(-c4ccc(C)cc4)c2=O)CC(C)(C)CC3=O)cc1	109	104
CCOc1ccccc1NC(=O)C(=O)c1cc(C)n(-c2ccc(F)cc2)c1C	117	110
CCN(Cc1ccccc1)C(=O)c1sc2nc3n(c(=O)c2c1C)CCCC3	109	115
Cn1c(SCC(N)=O)nc2c([nH]c3ccccc32)c1=O	108	113
COc1ccc(N2CCN(C(CNC(=O)c3ccc(OC)c(OC)c3)c3cccnc3)CC2)cc1 (stereo not given)	106	107
Cn1c(=O)c(=O)n(C)c2cc(N3CCCC3)c(NC(=O)c3ccccc3F)cc21	109	112
CCn1cc(C(=O)N2CCN(c3ccccc3)CC2)c(=O)c2cc(S(=O)(=O)N3CCCC3)ccc21	106	105
CCCCNc1nc2c(c(=O)n(C)c(=O)n2C)n1CC(O)COc1ccccc1C (stereo not given)	108	111
CC(=O)c1sc(N2C(=O)c3oc4ccccc4c(=O)c3C2c2ccc(C)cc2)nc1C (stereo not given)	101	100
Cc1ccc2oc3c(c(=O)c2c1)C(c1ccc(O)cc1)N(c1nc(C)c(C)s1)C3=O (stereo not given)	100	95
COc1cc(C(=O)NCC(c2ccc(N(C)C)cc2)N2CCCC2)cc(OC)c1OC (stereo not given)	104	107
O=C(NCCc1ccccc1)C(=O)NCC(c1cccnc1)N1CCN(c2ccccc2F)CC1 (stereo not given)	101	107
O=C(Nc1ccc(F)cc1)c1nc(SCc2ccccc2F)ncc1Cl	101	104
Cc1ccc(NC(=O)N(Cc2ccc3c(c2)OCO3)C2CCN(Cc3ccccc3)CC2)cc1F	109	116
COc1ccc(CNC(=O)CSc2nnc(C)c3c(C)n(-c4ccccc4)nc23)c(OC)c1	98	100
CCOC(=O)c1cnc2nc(NCc3cccc(Br)c3)[nH]n2c1=O	114	106
Cc1coc2c(C)c3oc(=O)c(CCC(=O)NCCc4ccccc4F)c(C)c3cc12	107	110
COC(=O)c1cc2oc3ccccc3c2n1CC(=O)Nc1ccc(OC)c(OC)c1OC	103	107
Cc1cccc(N2CCN(C(=O)Cn3ncc4c3-c3ccccc3OC4)CC2)c1C	107	111
COc1cc(C(=O)N2CCN(CCc3ccncc3)CC2)cc(OC)c1OC	108	109
CCN(C(=O)CSc1nc2ccccc2nc1Cc1cccc(OC)c1)c1cccc(C)c1	111	113
Cn1c(C(=O)Nc2cccc(Cl)c2)cc2c(=O)n(C)c3ccccc3c21	106	109
COc1cc2nc(SCC(=O)Nc3ccccc3F)n3nc(-c4ccccc4)nc3c2cc1OC	105	106
Cc1nn(CC(=O)NCc2ccco2)c(=O)c2cc3ccccc3n12	110	111
Cc1cc(-n2c(C)nc3ccccc3c2=O)ccc1NC(=O)c1ccc(C)c([N+](=O)[O-])c1	100	106
CCCCN(C)CC(O)Cn1cc(/C=C/C(=O)c2ccc(OC)c(OC)c2)c2ccccc21 (stereo not given)	106	107
Cc1ccc(Cn2c(C(=O)Nc3ccc(Cl)cc3)cc3sccc32)cc1	110	112
O=C(Nc1cccc(C(F)(F)F)c1)C1CCCN(S(=O)(=O)c2cccc3nsnc23)C1 (stereo not given)	104	106
COc1ccc(CNC(=O)CC(c2ccc(OC)cc2)N2Cc3ccccc3C2=O)cc1 (stereo not given)	101	110
CCc1nnc(SCC(=O)Nc2ccc(F)cc2F)c2cc3sc(C)cc3n12	97	92
COc1ccc(NCc2cc3cc4c(cc3n(CC(=O)Nc3cccc(F)c3)c2=O)OCO4)cc1	102	105
COc1ccc(CNC(=O)c2cc(C)nc3c2c(C)nn3-c2cccc(Cl)c2C)cc1	105	114
Cc1ccc2c(c1)c1c(c(=O)n(-c3ccccc3)c(=O)n1CC(=O)c1ccc(F)cc1)n2C	107	114
COc1ccc(OC)c(C2=NS(=O)(=O)N(C)C(C(=O)Nc3ccc(C(C)=O)cc3)=C2)c1	110	110
Cc1cccc(NC(=O)c2c(NC(=O)c3ccco3)sc3c2CCC(C(C)(C)C)C3)c1 (stereo not given)	102	106
CCCN1C(=O)CN(C2CCCCCC2)C(=O)C1c1ccc(OCC)c(OC)c1 (stereo not given)	101	102
Cc1ccc(-n2cnnn2)cc1S(N)(=O)=O	107	112
COc1cc2ccccc2cc1C(=O)Nc1ccc2oc(-c3ccccc3)nc2c1	103	108
Cc1nn2c(=O)cc(COC(=O)c3ccc(F)cc3)nc2s1	103	109
(listing goes on)
SMILES	PV pol inh	PV pol inh intensity
Cc1ccc(S(=O)(=O)C(CNC(=O)Cc2ccc(Cl)cc2)c2cccs2)cc1 (stereo not given)	104	106
Cc1ccc(NC(=O)c2cc3c(=O)n(Cc4ccco4)ccc3nc2C)cc1C	109	107
CCC(=O)N1c2ccccc2CC1C(=O)N1CCN(c2ccccc2)CC1 (stereo not given)	105	110
Cc1nn(CC(=O)NC2CC2)c(=O)c2cc3ccccc3n12	109	109
Cc1ccc(C(=O)Nc2c(C(=O)Nc3ccc(C)c(C)c3)sc3nc(C)cc(C)c23)cc1	100	104
CCCN1CCN(CCNC(=O)Nc2ccc(OC)c(OC)c2)CC1	106	113
COc1ccc(OC)c(NS(=O)(=O)c2ccc(Br)s2)c1	110	112
COc1cccc(N2CC(NC(=O)C3CC3)CC2=O)c1 (stereo not given)	110	113
COc1ccc(N2CCN(C(=O)C(C)n3c(=O)cc(C(F)(F)F)c4c(C)nn(C)c43)CC2)cc1 (stereo not given)	106	111
COc1ccc(N2CCN(S(=O)(=O)c3ccc(-c4cc(C(F)(F)F)on4)s3)CC2)cc1	100	108
N#C/C(=C/c1ccccc1Cl)c1nc2ccccc2c(=O)[nH]1	106	112
Cc1cc2nc(-c3cccc(NC(=O)c4cccc5ccccc45)c3)oc2cc1C	108	116
CCOC(=O)c1cc(-c2ccccc2)n(CCCC(=O)Nc2ccc(C)cc2Cl)c1C	103	106
COc1ccc(CCNC(=O)c2c(Nc3ccccc3C)sc(C(=O)c3ccccc3)c2N)cc1OC	104	107
CCN(CC)C(=O)CN1C(=O)COc2ccc(S(=O)(=O)N3CCOCC3)cc21	102	104
CCOCCCn1c(=N)c(C(=O)NC2CCCC2)cc2c(=O)n3cc(C)ccc3nc21	114	115
CCCC(=O)NCc1nc2cccnc2n1Cc1ccc(F)cc1	109	113
COc1cccc(CNc2ncc(-c3ccc(Br)cc3)n2C)c1	102	107
CCOc1ccc(CNC(=O)c2cccc(NC(=O)N3CCSc4ncccc43)c2)cc1	110	101
Cc1cccc(C(=O)n2nc(-c3cccnc3)nc2NCc2ccc(F)cc2)c1	99	108

17 entries from above, in CSV form.
Structure,PV pol inh,PV pol inh intensity
Cc1ccc(S(=O)(=O)C(CNC(=O)Cc2ccc(Cl)cc2)c2cccs2)cc1 (stereo not given),104,106
Cc1ccc(NC(=O)c2cc3c(=O)n(Cc4ccco4)ccc3nc2C)cc1C,109,107
CCC(=O)N1c2ccccc2CC1C(=O)N1CCN(c2ccccc2)CC1 (stereo not given),105,110
Cc1nn(CC(=O)NC2CC2)c(=O)c2cc3ccccc3n12,109,109
Cc1ccc(C(=O)Nc2c(C(=O)Nc3ccc(C)c(C)c3)sc3nc(C)cc(C)c23)cc1,100,104
CCCN1CCN(CCNC(=O)Nc2ccc(OC)c(OC)c2)CC1,106,113
COc1ccc(OC)c(NS(=O)(=O)c2ccc(Br)s2)c1,110,112
COc1cccc(N2CC(NC(=O)C3CC3)CC2=O)c1 (stereo not given),110,113
COc1ccc(N2CCN(C(=O)C(C)n3c(=O)cc(C(F)(F)F)c4c(C)nn(C)c43)CC2)cc1 (stereo not given),106,111
COc1ccc(N2CCN(S(=O)(=O)c3ccc(-c4cc(C(F)(F)F)on4)s3)CC2)cc1,100,108
N#C/C(=C/c1ccccc1Cl)c1nc2ccccc2c(=O)[nH]1,106,112
Cc1cc2nc(-c3cccc(NC(=O)c4cccc5ccccc45)c3)oc2cc1C,108,116
CCOC(=O)c1cc(-c2ccccc2)n(CCCC(=O)Nc2ccc(C)cc2Cl)c1C,103,106
COc1ccc(CCNC(=O)c2c(Nc3ccccc3C)sc(C(=O)c3ccccc3)c2N)cc1OC,104,107
CCN(CC)C(=O)CN1C(=O)COc2ccc(S(=O)(=O)N3CCOCC3)cc21,102,104
CCOCCCn1c(=N)c(C(=O)NC2CCCC2)cc2c(=O)n3cc(C)ccc3nc21,114,115
CCCC(=O)NCc1nc2cccnc2n1Cc1ccc(F)cc1,109,113

Next structures follow:
SMILES	PV pol inh	PV pol inh intensity
Cc1ccccc1Cn1c(COc2ccc(Cl)cc2)nc2ccccc21	109	105
CCOc1ccc(NC(=O)Cn2c(=O)c(CNc3ccc(CC)cc3)cc3cc4c(cc32)OCO4)cc1	110	108
CCN(CC)C(=O)c1sc2c(c1C)c(=O)n(-c1ccccc1)c(=O)n2Cc1cc(=O)n2ccccc2n1	109	115
Cc1ccc(COC(=O)c2[nH]c3c(c2C)C(=O)CC(c2ccc(Cl)cc2)C3)cc1 (stereo not given)	111	112
CCOC(=O)C1=C(CS(=O)(=O)c2ccc(C(C)(C)C)cc2)NC(=O)NC1c1cccc(OC)c1 (stereo not given)	106	108
CCc1ccccc1N(C)C(=O)C1CCCN(c2ncnc3onc(-c4ccc(F)cc4)c23)C1 (stereo not given)	111	110
COc1ccc(NS(=O)(=O)c2ccc3c(c2)CCN3C(=O)CCC(=O)O)cc1Cl	104	104
Cc1cccc2nc(-c3ccc(Cl)s3)c(Nc3ccc4c(c3)OCCO4)n12	111	113
Cc1ccc(NC2=C(CC(=O)O)C(c3ccc(F)cc3)N(c3ccc(C)cc3)C2=O)cc1 (stereo not given)	113	117
COc1ccc(C2C(=O)N(C3CCC(C)CC3)CC(=O)N2C2CCCC2)cc1OC (stereo not given)	115	115
COc1cccc(Cc2nc3ccccc3nc2SCC(=O)Nc2ccccc2F)c1	100	104
CCc1ccc(C(=O)c2cn(CC(=O)Nc3ccc(C)c(C)c3)c3ccccc3c2=O)cc1	107	105
CCOCCc1nnc(NC(=O)C(=O)c2cc(C)n(-c3ccc(Cl)cc3)c2C)s1	115	113
COc1ccc(Cn2c(CO)cnc2SCc2ccc(C)cc2)cc1	113	105
O=C(Nc1ccccc1O)c1cc(S(=O)(=O)N2CCCC2)ccc1Cl	100	107
CC(C)CCOc1ccccc1Cn1c(=O)sc2ccccc21	106	102
COc1ccccc1OCCn1c(-c2ccc(Cl)cc2)nc2ccccc2c1=O	102	104
Cc1ccccc1Nc1nn2c(=O)c3ccc(C(=O)N4CCCC(C)C4)cc3nc2s1 (stereo not given)	106	107
O=C(CSCc1cc(=O)c2ccccc2[nH]1)Nc1cccc(C(F)(F)F)c1	108	108
COc1ccc(C)cc1Nc1c2c(nc3ccccc13)CCC2	101	103
Brc1ccc(-c2nc3ccccn3c2Nc2ccc3c(c2)OCCO3)o1	97	129
Cc1cccc(N(C)c2nc3ccccc3c3nnc(C)n23)c1	105	90
CC(C)CCNC(=O)c1cc2cc(S(=O)(=O)N3CCCCC3)ccc2n1C	109	110
CCC(=O)Nc1ccccc1-c1nc2ccccc2n(C(C)C(=O)Nc2cccc(Cl)c2C)c1=O (stereo not given)	113	116
CCOc1ccc(NC(=O)CSc2oc(-c3ccco3)nc2S(=O)(=O)c2ccccc2)cc1	108	112
CSc1ccc(CCNC(=O)CCn2c(=O)c3cccn3c3cccnc32)cc1	108	111
CSc1ccc(CNc2ncc(-c3ccccc3)n2C)cc1	107	107
Cc1ccc2c(c1)C(C)(c1ccccc1)CC(C)(C)N2C(=O)c1ccc(F)cc1 (stereo not given)	101	103
O=C(NCC(c1ccc2c(c1)OCO2)N1CCOCC1)c1ccccc1 (stereo not given)	117	107
COc1ccc(Nc2cc(C(=O)NCc3ccccc3OC)c3ccccc3n2)cc1	110	119
CC1CN(c2ccc(Cl)cc2)c2nc3c(c(=O)n(CC(=O)O)c(=O)n3C)n2C1 (stereo not given)	107	110

Screening results from PubChem BioAssay.
